eIF4H inh: inhibitors of RNA binding by human eIF4H; Q15056; eIF4H fluorescence polarization binding assay; actives 0.94% (n = 290,000); inhibition, % at 35 µM;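 active = 50% or more with normal probe brightness, or confirmed in later tests; inconclusive = above 50% with abnormal brightness, or retests that disagree; inactive = below 50% or failed in later tests; about a fifth of its hits are not listed in these tables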;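 note: calls also rest on retests at 20 µM and on dose response follow-up; 0% = protein and probe with vehicle and 100% = probe without protein; strong numbers were not always called active; many hits fall short of the cut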
CSC inhib: blocks cancer stem cells | actives 1.1% (n = 300,000) | inhibition, % at 7.5 µM | cancer stem cell-like cells viability, luminescence;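 active = mean at 75% or more and at least half the replicates too; inconclusive = mean and replicates disagree; tested in HMLE shEcad cells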;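 note: 0% = median of negative and 100% = median of positive control wells; the first replicate is given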
HIV Env fusion: HIV envelope-mediated fusion inhibition | HeLa-JRFL Env/CEM21 cell fusion, luciferase | inhibition, % at 12.3 µM | actives 1.1% (n = 360,000);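 active = mean replicate inhibition score of at least 50 and every replicate individually at or above 50; inconclusive = only one of the two criteria met; inactive = mean below 50 and not all replicates reaching 50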;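 note: 0% = plate neutral controls and 100% = maraviroc near 300 nM; one replicate is shown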
Yeast UUG start: alters start codon recognition fidelity in yeast | S. cerevisiae UUG-firefly luciferase reporter, luminescence/redox ratio | activity score, % at 18.7 µM | actives 0.13% (n = 350,000);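 active = replicate mean at a twofold rise or more, about +100% in these data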;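 note: firefly luciferase made from a UUG start codon reports start codon fidelity; reporter light over untreated wells divided by growth signal over untreated wells; some hits fall short of that in this replicate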
MT1-MMP act inh: inhibitors of human MT1-MMP activation. HT1080 RFP-PRO-GFP cells, GFP/RFP ratio fluorescence, overnight; percent of plate control window, DMSO zero. GFP/RFP ratio change, % at 20 µM. AID 651647. actives 0.061% (n = 360,000);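 active = GFP/RFP ratio change of at least 30% with cell ATP level not reduced by more than half and red fluorescence within 50% of control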; note: strong numbers were not always called active
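system = RFP-PRO-GFP reporter HT1080 cells | dosing = 20 µM single dose, 1% DMSO | timing = overnight cell settling, then overnight compound exposure, 37 °C, 5% CO2 | read-out basis = GFP/RFP fluorescence ratio | controls = DMSO and RFP-L50D-GFP cell wells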
Rce1 inhib: blocks yeast Ras-converting enzyme; yeast membranes, quenched prenylated peptide cleavage fluorescence; calls only; actives 0.27% (n = 290,000); AID 2563;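 active = fall in fluorescence gain of 50% or more versus controls, with final raw signal at or below 3038400; inconclusive = same 50% fall but final raw signal above 3038400; inactive = fall in fluorescence gain under 50%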;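 note: plate controls were neutral control wells for no effect and wells lacking membranes for full effect; tested at 10 µM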
Target sequence (Q03530 whole entry, looked up): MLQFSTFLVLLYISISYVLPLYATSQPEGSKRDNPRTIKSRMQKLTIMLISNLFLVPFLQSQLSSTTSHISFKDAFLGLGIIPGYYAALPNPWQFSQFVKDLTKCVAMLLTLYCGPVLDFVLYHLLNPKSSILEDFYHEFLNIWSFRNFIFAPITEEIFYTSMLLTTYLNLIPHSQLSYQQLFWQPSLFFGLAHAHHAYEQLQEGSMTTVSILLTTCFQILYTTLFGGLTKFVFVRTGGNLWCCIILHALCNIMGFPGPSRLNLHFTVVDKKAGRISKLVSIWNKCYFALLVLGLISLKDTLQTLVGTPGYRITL
PABP polyA inh: PABP-poly(A) binding inhibition. PABP-poly(A) RNA binding, fluorescence polarization. actives 1% (n = 290,000). P11940. AID 2014. inhibition, % at 35 µM;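 active = 50% or more with normal probe brightness, or confirmed in later tests; inconclusive = above 50% with abnormal brightness, or retests that disagree; inactive = below 50% or failed in later tests; about a fifth of its hits are not listed in these tables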;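 note: calls also rest on retests at 20 µM and on dose response follow-up; controls were probe without protein and protein plus probe with vehicle; some compounds called inactive have numbers as strong as hits; many hits fall short of the cut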
Target sequence (P11940 whole entry, looked up): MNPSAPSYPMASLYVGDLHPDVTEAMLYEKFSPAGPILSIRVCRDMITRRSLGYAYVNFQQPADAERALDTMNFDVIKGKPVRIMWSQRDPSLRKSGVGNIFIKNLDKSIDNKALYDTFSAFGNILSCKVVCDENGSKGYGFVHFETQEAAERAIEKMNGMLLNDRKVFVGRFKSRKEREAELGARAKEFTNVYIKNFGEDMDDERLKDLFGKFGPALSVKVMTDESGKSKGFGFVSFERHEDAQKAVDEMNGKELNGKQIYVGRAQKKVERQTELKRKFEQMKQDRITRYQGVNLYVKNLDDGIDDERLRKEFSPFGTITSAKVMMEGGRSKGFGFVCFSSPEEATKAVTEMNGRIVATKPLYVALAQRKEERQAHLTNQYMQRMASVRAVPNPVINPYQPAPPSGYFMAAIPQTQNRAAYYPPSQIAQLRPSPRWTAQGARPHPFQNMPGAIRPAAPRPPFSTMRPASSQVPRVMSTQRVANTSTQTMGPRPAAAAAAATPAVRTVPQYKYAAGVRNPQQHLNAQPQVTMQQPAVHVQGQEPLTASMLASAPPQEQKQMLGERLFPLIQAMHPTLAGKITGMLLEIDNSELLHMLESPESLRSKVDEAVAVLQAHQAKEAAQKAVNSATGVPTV
MT1-MMP act inh RFP: recorded beside MT1-MMP act inh, whose call it bears; RFP signal change, %; measured here: RFP expression control read;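 0 = vehicle wells; hits needed this value within 50% of zero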
* hit, by the source's call; i = inactive; u = inconclusive; x = no result given. Some of the compounds tested; rates above refer to the full screens.

SMILES | eIF4H inh | CSC inhib | HIV Env fusion | Yeast UUG start | MT1-MMP act inh | MT1-MMP act inh RFP | Rce1 inhib | PABP polyA inh
Cc1onc(-c2c(Cl)cccc2Cl)c1C(=O)NCCN1CCOCC1 | -4.1 | 1.7 | -20.4 | -0.8 | 3.4 | 2.7 | i | -2.6
COc1ccccc1COC(=O)C(NC(=O)c1ccc(C)cc1)C(C)C (stereo unspecified) | x | x | 3.2 | -0.7 | 1.6 | 1.6 | x | x
Cc1cc(NC(=O)CN2CCCCC2C)nc2c1c(=O)oc1ccccc12 (stereo unspecified) | -1.2 | -17.3 | x | x | x | x | i | 0.6
COCCCNC(=S)N1CCCN(c2nc3c(C)c(C)ccc3cc2C#N)CC1 | 6.9 | 5.9 | -10.1 | x | -5.9 | -1.4 | i | 2.8
O=C(CCN=C1NS(=O)(=O)c2ccccc21)NCc1ccccc1F | x | -8.8 | -0.5 | x | -1.4 | 1.0 | x | x
COc1cccc(NC(=O)N2CCc3ccccc3C2)c1 | -9.7 | 10.1 | -65.6 | -3.1 | -0.1 | -3.5 | i | -6.1
O=c1cc(CSc2ccc([N+](=O)[O-])cc2)nc2sccn12 | 7.6 | -11.7 | 1.2 | -14.3 | -2.4 | 1.3 | i | 6.9
CN(CC1CCCO1)S(=O)(=O)c1ccc(C(=O)NCc2ccccc2)cc1 (stereo unspecified) | -4.0 | -3.7 | -8.3 | x | 1.4 | 3.2 | i | -7.1
Cc1ccc(NC(=O)C(C)N2CCOCC2)c(C(=O)c2ccccc2)c1 (stereo unspecified) | -1.6 | 3.5 | x | -5.3 | 2.9 | 6.4 | i | 9.6
CC(=O)c1ccc(-c2cnc3c(NC=O)cc(-c4ccc(S(C)(=O)=O)cc4)cn23)cc1 | x | x | u | -14.1 | -12.8 | -2.2 | x | x
CCC(C)c1ccccc1O (stereo unspecified) | x | -5.5 | x | 21.0 | -1.5 | 6.4 | x | x
COc1cccc(NC(=O)c2ccccc2-c2nc(-c3cccc(C)c3)no2)c1 | 1.6 | -14.0 | x | -8.6 | -2.7 | -5.0 | x | 0.8
COc1cc(/C=C2/C(=O)NN(c3cccc(Cl)c3)C2=O)cc(Br)c1O | u | 6.9 | 14.0 | -1.3 | -2.5 | -3.9 | i | u
COc1ccc(CCN(C)CCC(=O)Nc2ccc(C)cc2)cc1OC | 4.7 | -4.5 | 3.2 | x | -0.7 | 1.7 | i | -0.8
O=C(NNS(=O)(=O)c1ccc(F)cc1)C1CC(c2cccnc2)=NO1 (stereo unspecified) | 8.0 | -5.5 | 24.1 | x | 1.0 | 4.7 | i | 3.1
Cc1noc(/C=C/N(C)C)c1S(=O)(=O)N1CCCC(C(=O)NCc2ccc(F)cc2)C1 (stereo unspecified) | 1.3 | -15.2 | x | x | x | x | i | 1.9
Oc1cc2c(cc1CN1CCc3ccccc3C1)OCO2 | 8.7 | -1.5 | x | -15.2 | 1.0 | 4.6 | i | -2.3
CN1CCN(c2ccc(-c3cc(NC=O)c4ncc(-c5ccc(F)cc5)n4c3)cc2)CC1 | x | x | -8.4 | -11.0 | -11.5 | 3.1 | x | x
O=C(Nc1ccc2c(c1)OCO2)c1ccc2sc([C@@H]3O[C@H](CO)[C@@H](O)[C@H]3O)nc2c1 | x | x | -49.4 | -14.9 | 3.5 | 8.2 | x | x
CC(O)(c1ccc(F)c(F)c1)c1nc(-c2cc3ccccc3o2)cs1 (stereo unspecified) | x | x | 8.2 | 6.5 | 0.5 | -16.3 | x | x
Cc1cc(C(=O)Nc2nnc(C3CCCCC3)s2)cs1 | -10.9 | 0.5 | -39.2 | -14.5 | 4.9 | 3.1 | i | -6.6
CCc1nnc(NS(=O)(=O)c2ccc(NC(=O)CCC(=O)OC)cc2)s1 | -2.0 | -6.5 | -19.6 | -7.4 | -2.2 | 2.6 | i | 6.5
Cc1cc2cc(CN(Cc3cccs3)C(=S)NCc3ccco3)c(=O)[nH]c2cc1C | 3.5 | 17.8 | 6.5 | -21.2 | -0.1 | -2.0 | i | 4.4
Cc1ccc(OCC(=O)Nc2nc(C)c(Cl)cc2Cl)c([N+](=O)[O-])n1 | x | -9.4 | x | -9.6 | 1.1 | -1.8 | x | x
O=C(O)Cc1ccc2sc(-c3ccccc3)nc2c1 | -13.2 | 0.2 | -31.3 | -4.8 | 3.6 | 6.6 | i | -1.1
CCOC(=O)c1cc2sc(C)cc2n1CC(=O)N(CC)CC | -3.2 | -14.1 | 9.3 | -5.0 | 1.8 | 2.9 | i | 2.8
Cc1nn(-c2ccc(N3CCCCC3)nn2)c(C)c1CCC(=O)Nc1ccc(F)c(F)c1 | -11.7 | -14.2 | -25.1 | -17.9 | -2.3 | -6.3 | i | -9.4
Cc1cc(C(C)(C)C)cc(C)c1COC(=O)CN1C(=O)NC2(CCCC2)C1=O | x | 55.6 | 4.0 | -3.5 | 0.5 | -6.3 | x | x
C[C@H](NC(=O)[C@H]1N2C(=O)c3ccccc3C2SC1(C)C)C(=O)N1CCN(C)CC1 (stereo partly specified) | -8.4 | 0.5 | -0.8 | -19.1 | 7.9 | 0.5 | i | -1.3
Cc1ccc(CCNC(=O)CN(C)S(=O)(=O)c2cnc[nH]2)cc1 | -1.7 | 4.9 | -9.5 | -16.9 | 0.3 | 0.7 | i | -1.3
Fc1ccc(C(CCNCc2cccs2)c2ccco2)cc1 (stereo unspecified) | -8.3 | -2.5 | 31.5 | x | -4.2 | -3.1 | i | -5.6
Cn1c(=O)c2c(SCC(=O)Nc3ccc4c(c3)OCCO4)nc(CC(C)(C)C)nc2n(C)c1=O | -11.9 | x | x | -2.2 | -10.2 | -6.0 | i | -10.6
CC(=O)N/C(=C\c1ccccc1Cl)C(=O)O | 6.4 | -5.9 | x | -25.9 | 3.1 | 1.3 | i | -1.0
Cc1cc(Br)ccc1NC(=O)CN1C(=O)CCC1=O | -9.8 | -17.3 | -47.3 | 0.7 | -2.4 | -4.1 | i | 0.7
Fc1cc(Br)ccc1NC(=S)Nc1cccnc1 | -3.0 | 1.8 | 0.9 | -24.8 | 0.0 | -0.6 | i | 7.4
Clc1ccc(-n2ncc3c(NCC4CCCO4)ncnc32)cc1 (stereo unspecified) | -10.6 | 30.5 | -284.0 | -4.3 | 1.0 | -2.3 | i | -1.3
CCN(CC)S(=O)(=O)c1ccc2c(c1)N(CC(=O)Nc1cccnc1Cl)C(=O)CO2 | -2.0 | -8.7 | 7.5 | -5.0 | 2.1 | 2.8 | i | 1.5
Cc1cc(SC#N)cc(C)c1NC(=O)CCl | 7.5 | 30.0 | -10.2 | x | 6.4 | 5.3 | i | 1.5
Nc1nnc(-c2cn(-c3ccccc3)nc2-c2ccc(Cl)cc2)o1 | -8.2 | 11.5 | 14.2 | x | 2.5 | 1.1 | i | -7.6
COc1ccc(Cc2noc(CN3CCCC(OCc4ccccn4)C3)n2)cc1OC (stereo unspecified) | -6.1 | 2.8 | 1.8 | x | 0.2 | -1.0 | x | -0.9
O=C(Cc1cccc(C(F)(F)F)c1)NCC(=O)Nc1cc(Cl)ccc1Cl | -3.6 | 6.2 | -4.8 | -7.4 | 1.3 | 0.5 | i | 6.3
c1ccc(CNc2nc(NCCc3ccncc3)c3sccc3n2)cc1 | x | x | 26.3 | -21.1 | -17.2 | -14.2 | x | x
NC(=O)CCC(=O)N1CCCC(C(=O)c2ccc(C(F)(F)F)cc2)C1 (stereo unspecified) | 1.9 | -0.7 | 0.7 | -13.7 | -4.3 | 0.3 | i | 19.2
CN(C)c1cc(N)c2ccccc2n1 (tested in a mixture with another compound) | -0.4 | -6.2 | -29.4 | 0.4 | -0.9 | -1.1 | i | 10.2
Cc1cc(C)c(S(=O)(=O)N2CCCOC2CNC(=O)C(=O)NCc2ccncc2)c(C)c1 (stereo unspecified) | -3.4 | 11.4 | -1.9 | x | 3.6 | 7.5 | i | -9.0
CCC1CCCCN1Cc1ccc(N)cc1 (stereo unspecified) | 3.2 | -5.5 | 6.6 | x | -2.2 | -1.6 | i | 4.7
CC1(C(=O)NC2CCCC2)CCC(=O)N1CCc1c[nH]c2ccccc12 (stereo unspecified) | x | x | 17.0 | -16.4 | -0.8 | 1.1 | x | x
Cc1ccc(C(C)C)c(OCc2nc(-c3nonc3N)no2)c1 | 2.0 | 36.8 | -4.5 | -18.5 | 2.2 | -5.1 | i | -4.4
N#Cc1c(-c2ccncc2)c2c([nH]c1=S)CCCC2 | -3.4 | 8.6 | x | -10.8 | 5.6 | 6.2 | i | -1.7
CC1(C)CC(=O)C=C(NCCCNC2CCCCC2)C1 | -1.9 | -4.5 | 18.6 | -5.0 | -2.5 | -0.5 | i | 0.0

Part of the list above in order of count of non-hydrogen atoms, smallest number first.
SMILES | eIF4H inh | CSC inhib | HIV Env fusion | Yeast UUG start | MT1-MMP act inh | MT1-MMP act inh RFP | Rce1 inhib | PABP polyA inh
O=C(O)Cc1ccc2sc(-c3ccccc3)nc2c1 | -13.2 | 0.2 | -31.3 | -4.8 | 3.6 | 6.6 | i | -1.1
COc1ccccc1COC(=O)C(NC(=O)c1ccc(C)cc1)C(C)C (stereo unspecified) | x | x | 3.2 | -0.7 | 1.6 | 1.6 | x | x
O=C(Nc1ccc2c(c1)OCO2)c1ccc2sc([C@@H]3O[C@H](CO)[C@@H](O)[C@H]3O)nc2c1 | x | x | -49.4 | -14.9 | 3.5 | 8.2 | x | x

Following part
SMILES | eIF4H inh | CSC inhib | HIV Env fusion | Yeast UUG start | MT1-MMP act inh | MT1-MMP act inh RFP | Rce1 inhib | PABP polyA inh
CCC(=O)Nc1nnc(S(=O)(=O)N(CC)c2ccc(OC)cc2)s1 | -3.1 | -1.3 | -9.5 | -11.8 | 3.5 | -1.2 | i | 3.9
O=C(COC(=O)CCCNC(=O)c1ccc(Cl)cc1)Nc1cc(Cl)c(Cl)cc1Cl | -0.4 | -2.4 | -17.4 | -15.2 | 0.5 | 2.6 | i | -15.4
CCOC(=O)c1c(NC(=O)Cn2nnc(-c3ccccc3Cl)n2)sc(C)c1C | -6.5 | 4.2 | x | -12.5 | 5.5 | -2.3 | i | -8.8
CCOc1ccc(NC(=O)CN2CCN(CC(=O)Nc3ccc(OC)cc3)CC2)cc1 | -4.6 | 3.8 | -15.5 | -15.3 | 7.5 | 4.1 | i | 3.3
O=C(Nc1cc(N2CCCCC2)ncn1)c1ccc(F)cc1 | -14.1 | 6.3 | -11.1 | x | -1.8 | -0.7 | i | -0.7
CCOC(=O)CNC(=O)C1(/C=C/c2ccccc2)CC(=O)N1c1ccc(OC)cc1 (stereo unspecified) | -8.2 | -11.2 | 8.9 | -1.4 | -3.5 | -2.0 | i | 4.3
COc1ccccc1NC(=O)N1CCN(C(=O)Nc2ccccc2OC)CC1 | -7.0 | -1.0 | -20.5 | 3.9 | -1.1 | 1.6 | i | -9.6
Cc1cccc(Nc2c(-c3ccc(N4CCOCC4)cc3)nc3ncccn23)c1 | -4.0 | -4.8 | -31.2 | -24.1 | -3.3 | 4.2 | i | -2.4
Cc1cc(C)cc(NC(=O)CSc2nnnn2-c2cccnc2)c1 | -7.0 | -4.4 | -4.5 | 1.7 | -2.1 | -3.8 | i | 9.1
Cc1cccnc1-n1c(CCN2C(=O)c3ccccc3C2=O)nc2ccccc2c1=O | -0.9 | -6.6 | x | -11.6 | -5.6 | -0.8 | i | -4.5
CC(C)CN(C(=O)C1CC1)C1CCS(=O)(=O)C1 (stereo unspecified) | x | -0.3 | x | -22.7 | -1.3 | -1.2 | i | x
Cc1ccc(C(C)C)cc1OCC(=O)N1CCN(C(=O)c2ccco2)CC1 | x | -4.4 | x | 26.4 | -0.8 | -1.9 | i | x
CCOc1ccc(OCCC(=O)OCC(=O)NC2CC2)cc1 | x | -3.9 | x | -0.8 | 1.6 | 3.6 | i | x

Screening results deposited in PubChem BioAssay by several laboratories.
